BJeLR viability – BJeLR cell viability loss. BJeLR (HRASV12) viability, CellTiter-Glo ATP luminescence, 48 h; reference of the scale not given here. inhibition, % (test concentration not listed). actives 0.17% (n = 300,000);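 active = replicate mean above 50%; inconclusive = above 50% but judged a plate artefact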;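 also: 50 nL library stock added to about 25 µL; numbers are from one replicate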
PrP 5UTR inh – suppresses PrP 5' UTR mRNA reporter expression | actives 0.35% (n = 340,000) | inhibition, % (no concentration beside the values) | cell-based PrP 5' UTR mRNA reporter, plate reader | AID 488862;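 active = every replicate at 50% or more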;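 also: 0 = median of the neutral control wells; tested in H4 reporter cells; numbers are from one replicate; inactives centre near -14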
Mtb hypoxia inh – reduces hypoxia-regulated biosensor signal in M. tuberculosis; M. tuberculosis hypoxia-regulated fluorescent reporter, fluorescence; fluorescence inhibition, % (concentration not given with the values); actives 0.1% (n = 300,000); AID 1159583;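 active = 35 to 45% if threefold the growth effect, above 45% if 1.5-fold the growth effect; inactive = the rest, general growth blockers included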;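 also: wells of about 50 µL received 100 nL stock; 0% = vehicle wells and 100% = reference inhibitor wells; whole bacteria with a GFP reporter of the hypoxia response; strong numbers were not always called active; many hits fall short of the cut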
Sa RN4220 lethal – kills Staphylococcus aureus RN4220; inhibition, % (no concentration beside the values); actives 0.33% (n = 330,000); S. aureus RN4220 growth, OD600, 16 h;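 active = z-score of -3 or lower and OD600 up to 0.18 on both plates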;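 also: plate controls were untreated cells for no effect and reference antibiotic for full effect; stock transfer was 100 nL into about 80 µL; one replicate is shown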
Autofluor counter – flagged as autofluorescent in microsphere protease counterscreen. compound autofluorescence counterscreen, microsphere flow cytometry; stronger effect = higher value. fluorescence intensity (concentration not given with the values). actives 3.1% (n = 360,000). AID 624483;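 active = at least 3 SD above the mean of all compounds, about 16000 in these data; inconclusive = too few beads counted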;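 also: 100 nL of 1 mM stock went into each well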
ugtP null kill – compounds lethal to S. aureus RN4220 ugtP deletion mutant; AID 1259309; OD600 growth, 16 h; some inactives read as strong as hits; growth inhibition, % (no concentration beside the values); actives 0.54% (n = 330,000);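 active = z-score under -3 and OD600 up to 0.15 on both plates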;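 also: plate controls were untreated wells for no effect and antibiotic for full effect; wells of about 80 µL received 100 nL stock; the first replicate is given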
Mtb hypoxia inh growth – second read-out of Mtb hypoxia inh, no call of its own (marks repeat the call); growth inhibition, %; measured here: M. tuberculosis growth (absorbance);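 0% = vehicle and 100% = reference antibiotic; read after six days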
Numbers without * were called inactive; ? = inconclusive; / = no result given.

SMILES	BJeLR viability	PrP 5UTR inh	Mtb hypoxia inh	Mtb hypoxia inh growth	Sa RN4220 lethal	Autofluor counter	ugtP null kill
O=C1C=C(c2ccc(OC(F)(F)F)cc2)C[C@@H](c2ccc(F)cc2)C1	/	-23	8	7	-12	3700	20
Cc1cccc(N(Cc2nnc3n2CCCCC3)C(=O)Nc2ccccc2)c1	-4	-31	6	3	1.3	4731	4
O=C(NCC(c1cccs1)N1CCOCC1)c1ccco1 (stereo unspecified)	-4	-21	7	7	5.7	?	6
O=C(NCCc1ccc(F)cc1)c1ccc2c(=O)n3c(nc2c1)CCC3	0	-47	7	6	-0.3	?	8
CCc1n[nH]c(=S)n1N=Cc1cc(Br)c(OC)cc1OC	/	/	13	-1	-1.6	/	-2
N#CCCOC1(C#CCN2CCCC2)CCCCC1	2	-27	-7	-7	0.1	3994	0
Cc1ccc2c(COC(=O)c3ccc(C)c(C)c3)cc(=O)oc2c1	10	-45	1	2	6.0	3794	5
COc1ccc(NC(=O)c2ccccc2NC(=O)CSc2ccc(Cl)cc2)cc1	0	-37	/	/	3.7	2426	1
CN(C)c1ccc(/C=C/c2c([N+](=O)[O-])c(=O)n(C)c(=O)n2C)cc1	24	-18	8	2	1.9	3072	8
CCCCC(=O)Nc1ncc(S(=O)(=O)c2ccc([N+](=O)[O-])cc2)s1	2	-10	2	3	8.0	5007	6
COc1ccc(NC(=O)c2ccccc2NC(=O)COc2ccccc2)cc1	-8	-30	-2	3	-1.9	4724	-7
O=C(Nc1ccccc1Cl)C1CCCN(c2ncnc3c2nc2n3CCCCC2)C1 (stereo unspecified)	1	-15	8	2	5.3	5926	5
COc1ccc(N2C(=O)CC(Nc3ccc(C(=O)O)cc3)C2=O)cc1OC (stereo unspecified)	6	-29	16	7	0.0	4053	4
CSc1nc(N)nc2c1ncn2CC(=O)N1CCN(Cc2c(C)cc(C)cc2C)CC1	/	2	-11	-6	2.3	3765	9
Cc1ccc(/C=N/NC(=O)C(O)c2ccccc2)o1 (stereo unspecified)	-8	-6	/	/	/	3371	/
Nn1c(SCC(=O)Nc2ccccc2Oc2ccccc2)nnc1C1CC1	/	-3	-10	0	-1.7	?	-2
Cc1ccc(C23CC4CC(CC(C(=O)N5CCOCC5)(C4)C2)C3)cc1	-2	-5	2	6	2.5	7870	-4
CCc1nc2oc3cc(OC)ccc3c(=O)c2c(=O)n1Cc1ccccc1	16	-18	-5	1	4.0	24709*	5
CCCCN(C(=O)Cc1ccc2c(c1)OCCO2)c1c(N)n(CCC)c(=O)[nH]c1=O	/	-19	1	1	3.0	4795	10
CCN(C(=O)COC(=O)c1ccc2c(=O)n3c(nc2c1)CCC3)C1CCS(=O)(=O)C1 (stereo unspecified)	8	5	0	1	6.1	3615	7
C/C(CC(=O)Nc1ccc2c(c1)OCCO2)=N\NC(=O)c1cccc(O)c1	1	9	/	/	/	5572	/
CN(c1ccccc1)c1nc(N)c([N+](=O)[O-])c(N2CCCCCC2)n1	8	-10	4	11	-4.2	/	3
Cc1ccc(CNC(=O)CCS(=O)(=O)c2ccc3c(c2)NC(=O)C(C)S3)cc1 (stereo unspecified)	-5	-5	-4	-5	0.2	4742	4
O=C(NCc1nc2ccccc2[nH]1)c1cccc(S(=O)(=O)N2CCCCC2)c1	-13	-8	0	3	4.1	4529	11
O=C(NCC(c1ccc(F)cc1)N1CCOCC1)c1ccc(OCc2ccccc2)cc1 (stereo unspecified)	/	-32	-5	4	-2.1	3825	4
CC(=O)c1cn(CC(=O)Nc2ccc(C)cc2)c2ccccc12	0	0	0	5	4.9	3260	-1
CCN1C(=O)Cc2cc(S(=O)(=O)NCCc3ccccc3)ccc21	-4	-16	2	-4	3.9	6200	4
O=C(CSc1nc(Nc2ccccc2)nc(N2CCOCC2)n1)N1CCCC1	8	4	/	/	9.2	3792	4
Clc1cccc(CSc2nc3ccncc3[nH]2)c1	4	-32	-8	-7	15	6035	10
COc1ccccc1NC(=O)CN1C(=O)CC(C)S(=O)(=O)c2ccccc21 (stereo unspecified)	3	-17	15	5	-1.8	6589	8
Cc1ccccc1OCC(O)CN1CCN(c2ccccn2)CC1 (stereo unspecified)	7	-23	8	0	3.3	2012	6
COc1ccc(C(O)(C(C)C)C(CN2CCOCC2)c2ccc(Cl)cc2)cc1 (stereo unspecified)	-7	18	8	3	1.7	3065	-7
C#CC[N+](C)(C)C(C#Cc1ccccc1)CC=C (stereo unspecified)	5	-33	/	/	3.0	2504	4
O=C(Nc1ccc(F)cc1F)c1cc2ccccc2oc1=O	8	-74	1	0	2.8	/	20
CCN(C[C@H]1N[C@@](C)(C(=O)OC)[C@H]2C(=O)N(Cc3ccccc3)C(=O)[C@@H]12)C(=O)c1ccc(C(C)(C)C)cc1	/	-15	0	2	-0.1	3723	0
Cc1ccc(/C=C2\SC(N3CCCCC3)=NC2=O)cc1	-3	-70	23	14	-1.2	3512	4
O=C(Nc1ccc2oc(-c3ccncc3)nc2c1)c1ccc(Br)o1	0	-25	9	8	2.7	3688	0
C=CCC(CC=C)(NC(=O)c1cccc(C)c1)c1ccccc1	-11	-31	9	7	8.4	2215	4
CN(Cc1ccccc1)C(=O)c1cccc(NC(=O)C2CCCN(C(=O)OC(C)(C)C)C2)c1 (stereo unspecified)	/	-7	-7	-5	-3.9	3556	-2
O=C(Nc1ccccc1N1CCCC1)c1ccc(Br)o1	-7	-18	6	4	3.8	8191	7

A portion from further up, as a working copy:
SMILES	BJeLR viability	PrP 5UTR inh	Mtb hypoxia inh	Mtb hypoxia inh growth	Sa RN4220 lethal	Autofluor counter	ugtP null kill
C/C(CC(=O)Nc1ccc2c(c1)OCCO2)=N\NC(=O)c1cccc(O)c1	1	9	/	/	/	5572	/
CN(c1ccccc1)c1nc(N)c([N+](=O)[O-])c(N2CCCCCC2)n1	8	-10	4	11	-4.2	/	3
Cc1ccc(CNC(=O)CCS(=O)(=O)c2ccc3c(c2)NC(=O)C(C)S3)cc1 (stereo unspecified)	-5	-5	-4	-5	0.2	4742	4
O=C(NCc1nc2ccccc2[nH]1)c1cccc(S(=O)(=O)N2CCCCC2)c1	-13	-8	0	3	4.1	4529	11
O=C(NCC(c1ccc(F)cc1)N1CCOCC1)c1ccc(OCc2ccccc2)cc1 (stereo unspecified)	/	-32	-5	4	-2.1	3825	4
CC(=O)c1cn(CC(=O)Nc2ccc(C)cc2)c2ccccc12	0	0	0	5	4.9	3260	-1
CCN1C(=O)Cc2cc(S(=O)(=O)NCCc3ccccc3)ccc21	-4	-16	2	-4	3.9	6200	4

(cont.)
SMILES	BJeLR viability	PrP 5UTR inh	Mtb hypoxia inh	Mtb hypoxia inh growth	Sa RN4220 lethal	Autofluor counter	ugtP null kill
CCCNC(=O)C1(CC2CC(c3ccccc3)=NO2)CCN(C(=O)CCCCCBr)CC1 (stereo unspecified)	-4	-11	/	/	/	3482	/
O=C(CN(Cc1ccco1)C(=O)c1cccc(F)c1)Nc1ccccc1C(F)(F)F	/	/	6	2	7.3	/	11
COc1cc(C)c2c(c1C=O)Oc1c(c(C)c(O)c3c1C(O)OC3=O)OC2=O (stereo unspecified)	-4	2	/	/	-0.2	5023	-9
O=C(N/N=C/c1ccc(O)c([N+](=O)[O-])c1)C1CC1(c1ccccc1)c1ccccc1 (stereo unspecified)	10	-15	/	/	/	3685	/
O=S(=O)(/N=C(\c1ccccc1)N1CCOCC1)c1cccs1	-6	-27	/	/	/	2503	/
Clc1ccc2nc(-c3ccc(Cl)nc3)[nH]c2c1	-9	-74	/	/	/	3409	/
CC(C)N1CCc2[nH]c(=S)[nH]c(=O)c2C1	-3	-12	-2	9	6.7	2546	7
Fc1ccc(NC(=S)NC2CC3CCC(C2)N3Cc2ccco2)cc1 (stereo unspecified)	-11	-18	-1	1	7.7	4668	13
CSc1ccc(/C=C(/NC(=O)c2ccccc2)C(=O)NCCN2CCOCC2)cc1	1	-7	-3	-5	1.1	5971	1
Cc1csc(NC(=O)CSCC(=O)O)c1-c1nc2ccccc2s1	7	-19	-7	7	7.9	/	-17
COc1cccc(-c2nc(CS(=O)(=O)CC(=O)Nc3c(C)cccc3C)c(C)o2)c1	0	5	4	8	6.8	4465	18
CSc1nncn1N=Cc1ccc([N+](=O)[O-])cc1	/	/	0	4	-2.2	/	-8
CC(=O)[C@H]1[C@H](C#N)C[C@H]2[C@@H]3CC=C4C[C@@H](O)CC[C@]4(C)[C@H]3CC[C@@]21C	-17	-10	/	/	/	5898	/
O=c1c2cnn(-c3ccccc3)c2nc(-c2cccs2)n1-c1cccc(Cl)c1	-4	-11	10	8	0.0	2955	11
N#Cc1nc(-c2ccccc2Cl)oc1NCC1CCCO1 (stereo unspecified)	1	-14	17	8	2.7	4850	9
C#CC1(NC(=O)NS(=O)(=O)c2ccc(C)cc2)CCCCC1	-4	8	-2	-5	1.4	3234	-1
NS(=O)(=O)c1ccc(CCNC(=O)c2cncc(Br)c2)cc1	-4	-20	18	16	-1.3	3974	7
CC(=NCCN1CCN(C(=S)Nc2ccccc2)CC1)C1=C(O)CC(C)(C)CC1=O	1	-8	2	11	-0.8	4451	-15
Cc1noc(C)c1COc1ccc2ccc(=O)oc2c1	4	-21	19	14	6.7	3399	6
C=CCc1cccc(C=Nc2c[nH]c(=O)[nH]c2=O)c1O	-4	-50	/	/	/	4752	/

Single values from above:
Reading for `CCCNC(=O)C1(CC2CC(c3ccccc3)=NO2)CCN(C(=O)CCCCCBr)CC1` (stereo unspecified) in BJeLR viability: -4
Reading for `Fc1ccc(NC(=S)NC2CC3CCC(C2)N3Cc2ccco2)cc1` (stereo unspecified) in Autofluor counter: 4668

Next part
SMILES	BJeLR viability	PrP 5UTR inh	Mtb hypoxia inh	Mtb hypoxia inh growth	Sa RN4220 lethal	Autofluor counter	ugtP null kill
COc1cc(C=NNC(=O)CCN2CCCCC2)ccc1O	/	/	9	1	5.3	/	3
O=S(=O)(c1ccccc1C(F)(F)F)N1CCN(S(=O)(=O)c2ccccc2C(F)(F)F)CC1	-4	-13	0	5	3.1	22001*	4
Cc1cccc(NC(=O)N2CCCC2C(=O)Nc2ccccc2)c1 (stereo unspecified)	-21	-19	-7	14	-0.2	4208	0
CC(=O)Nc1ccc(S(=O)(=O)N2CCN(Cc3ccncc3)CC2)cc1	6	-11	6	8	1.2	3444	4
Cc1ccc(C(=O)CN2CCN(c3ccccn3)CC2)c(C)c1	0	-7	6	2	5.0	4308	7
CC(C)(C)c1csc(NC(=O)c2cccnc2)n1	0	-28	8	6	2.8	3866	4
Cc1ccc(-n2nnnc2-c2cnc(N3CCCC3)nc2C(F)(F)F)cc1	-2	-13	4	5	3.2	4181	4
O=C1CC(C(=O)Nc2ccc(C(=O)N3CCOCC3)cc2)C2(CCCCC2)O1 (stereo unspecified)	/	-6	/	/	-3.7	4106	-1
COc1ccc(C/C(N)=N/OC(C)=O)cc1OC	3	-7	-2	-5	-1.1	2222	2
COC(=O)C1=C(c2ccccc2)C[C@@H]2CC[C@H]1N2C(=O)NC(C)C	-3	-9	/	/	/	4425	/
O=C(COc1ccccc1)NCC(=O)NN=Cc1ccc(Br)cc1	/	/	-6	4	-2.2	/	0
Cc1cccc(N(C(=O)c2snc(C(N)=O)c2N)C(C(=O)NCC2CCCO2)c2ccc3ncccc3c2)c1 (stereo unspecified)	0	-5	-8	6	1.9	3868	5
C=CCn1c(Cc2nc3ccccc3[nH]2)n[nH]c1=S	-6	-9	9	15	3.4	11590	8
Cc1nc2nc[nH]n2c(=O)c1NC(=O)CCc1ccccc1	4	-3	/	/	6.4	4647	11
CC1(C)CC(=O)C2=C(C1)N(c1ccc(F)cc1)C(=O)NC2(C(F)(F)F)C(F)(F)F	1	-18	5	2	2.1	10340	1

Single records (already shown). Order of screens: BJeLR viability	PrP 5UTR inh	Mtb hypoxia inh	Mtb hypoxia inh growth	Sa RN4220 lethal	Autofluor counter	ugtP null kill
Listed for CC1(C)CC(=O)C2=C(C1)N(c1ccc(F)cc1)C(=O)NC2(C(F)(F)F)C(F)(F)F → 1	-18	5	2	2.1	10340	1
Listed for Cc1cccc(NC(=O)N2CCCC2C(=O)Nc2ccccc2)c1 (stereo unspecified) → -21	-19	-7	14	-0.2	4208	0
